# Screens (PubChem)
# PKD1 inh – PKD1 (human) kinase inhibition; Q15139; PKD1 kinase fluorescence polarization assay; inhibition, %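 (about 10 µM by stock and volumes)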; hit rate 0.056% among 200,000; AID 797;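 active means inhibition of 50% or more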;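 further: controls were vehicle for no effect and a reference inhibitor for full effect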
# Target sequence (Q15139 whole entry, looked up): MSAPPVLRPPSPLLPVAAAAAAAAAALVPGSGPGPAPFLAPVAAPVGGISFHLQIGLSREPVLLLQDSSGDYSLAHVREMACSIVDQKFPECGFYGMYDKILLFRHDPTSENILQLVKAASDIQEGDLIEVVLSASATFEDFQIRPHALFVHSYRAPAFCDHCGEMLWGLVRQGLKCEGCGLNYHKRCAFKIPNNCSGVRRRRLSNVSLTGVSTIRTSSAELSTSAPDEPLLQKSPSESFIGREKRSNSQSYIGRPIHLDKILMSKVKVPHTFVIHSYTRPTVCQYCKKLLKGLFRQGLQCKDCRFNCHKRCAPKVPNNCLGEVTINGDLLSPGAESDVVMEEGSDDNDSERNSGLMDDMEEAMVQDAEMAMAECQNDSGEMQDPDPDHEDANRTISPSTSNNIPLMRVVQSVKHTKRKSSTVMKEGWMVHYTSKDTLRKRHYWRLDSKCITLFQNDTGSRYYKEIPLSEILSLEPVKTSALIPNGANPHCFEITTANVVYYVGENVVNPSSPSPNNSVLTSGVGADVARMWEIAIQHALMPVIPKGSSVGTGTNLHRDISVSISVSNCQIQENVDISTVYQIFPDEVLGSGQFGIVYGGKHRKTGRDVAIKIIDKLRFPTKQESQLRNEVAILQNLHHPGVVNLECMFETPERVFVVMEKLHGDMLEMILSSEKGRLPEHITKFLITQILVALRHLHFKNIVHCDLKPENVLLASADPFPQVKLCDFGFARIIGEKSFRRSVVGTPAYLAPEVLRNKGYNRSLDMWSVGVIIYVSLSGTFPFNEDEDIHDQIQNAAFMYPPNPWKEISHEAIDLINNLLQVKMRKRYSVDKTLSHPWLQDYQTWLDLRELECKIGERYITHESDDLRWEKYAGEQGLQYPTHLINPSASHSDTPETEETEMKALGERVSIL
# HSV augment – HSV replication enhancement; HSV replication augmentation in cells, fold increase; maximum fold increase; hit rate 0.005% among 220,000; AID 1956;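 active means peak rise of 1.5-fold or more in the series; tested in PC3 cells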;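 further: first round at 10 µM; read as green reporter fluorescence; hits show the peak of a series up to 25 µM; 1 = signal of infected wells without compound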
# GALR2 ag – agonists of human galanin receptor 2 (GALR2) | O43603 | GALR2-expressing cells, agonist activation read-out | activation, %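 (tested at 5 µM)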 | hit rate 0.48% among 140,000;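 active means above mean plus 3 SD of all compounds, about 5% in these data, not always enough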;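 further: 0% = vehicle buffer wells and 100% = reference agonist at full effect; tested in CHO reporter cells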
# Insulin prom inh – TRM-6 insulin promoter activity inhibition; AID 1273; hit rate 0.9% among 130,000; inhibition, % at 2 µM; TRM-6 cells (human fetal islet line), insulin promoter-eGFP reporter, imaging; reporter expression induced with tamoxifen;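 active means inhibition above the mean plus 3 SD, with well images judged a real hit on visual review, cut at about 60% in these data, passing the limit was not always enough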
# RGS16-Gao – RGS16-Galphao interaction regulator (human); binding response (% of control), % at 10 µM; AID 1441; bead-based flow cytometry RGS16-Galphao binding, fluorescence; actives lie on both sides; O15492+P09471; hit rate 0.38% among 220,000;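 active means below 25% or above 175%, edge rows of some plates excepted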;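 further: Galphao activated by GDP with aluminum fluoride before binding; 100% = wells without compound and 0% = beads without RGS; some results beyond the cut were filed as inactive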
# Insulin prom inh cell count – also measured in Insulin prom inh; calls as there; normalized cell count, %; measured here: cell count, toxicity; reference of the scale not given here;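 cells exposed to compound for 48 h; stained nuclei by imaging scaled within each plate; lower means fewer cells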
# HSV augment primary fold – second read-out of HSV augment, no call of its own (marks repeat the call); fold increase; compound at 10 µM; measured here: primary screen fold increase 10 uM; tested in PC3 cells;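 GFP signal in the first replicate; 1 = infected wells without compound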
# The depositor's hits bear a star; i = inactive; . = no result given.
SMILES,PKD1 inh,HSV augment,HSV augment primary fold,GALR2 ag,Insulin prom inh,Insulin prom inh cell count,RGS16-Gao
O=C(O)c1cnc(-c2ccccc2)nc1Sc1ccc(Cl)cc1Cl,-5.8,i,1.07,-1.4,41.7,142.3,100.5
COc1ccc(Br)cc1/C=N/Nc1ccc(Cl)c(C(=O)O)c1,-6.1,i,0.71,.,.,.,102.8
N/C(=N\OC(=O)C(c1ccccc1)c1ccccc1)c1cccnc1,-13.4,i,0.99,-2.1,-35.5,40.3,105.7
COc1cccc(C(C(=O)NC2CCCCC2)N(C(=O)c2cccs2)c2ccc3c(c2)OCO3)c1 (stereo not given),3.8,i,0.89,-0.3,.,.,107.3
COC(=O)Nc1ccc(S(=O)(=O)Nc2cccc3ccccc23)cc1,-2.5,i,0.97,-0.7,-43.8,85.4,102.5
Cc1[nH]c2ccccc2c1C(=O)C(=O)NCc1cccs1,-6.6,i,1.02,.,-27.3,122.3,104.7
CC(=O)c1ccc(NC(=S)N2CC(C)CC(C)C2)cc1 (stereo not given),2.4,i,1.07,0.3,.,.,101.8
Cc1cc(SCC(=O)Nc2cccnc2Cl)nc2ccccc12,-1.4,i,0.94,.,-60.0,71.1,100.0
CCc1nnc(NS(=O)(=O)c2ccc(NC(=S)NC(=O)c3ccc(OC)cc3)cc2)s1,-10.3,i,1.05,0.9,13.9,63.3,151.0
COCCNc1oc(-c2ccc(C)cc2)nc1C#N,2.4,.,.,-1.9,-32.1,157.7,111.7
Cn1c(N2CCOCC2)nc2c1c(=O)n(Cc1ccc(Cl)c(Cl)c1)c(=O)n2C,-10.9,i,0.84,-0.3,0.0,107.8,97.9
O=C(CCOc1ccccc1)Nc1cccc(S(=O)(=O)Nc2ccccc2Cl)c1,1.1,i,0.92,-0.7,-7.7,63.2,192.4
O=C(CN(C(=O)Cn1nnc(-c2cccs2)n1)c1cnc2ccccc2c1)NCC1CCCO1 (stereo not given),-4.8,i,1.11,-0.7,-9.4,141.4,54.1
c1ccc(OCCSc2nnc3sc4ccccc4n23)cc1,8.3,i,1.12,-1.3,.,.,102.0
O=C1CCC(=O)N1c1nc2nc(-c3ccccc3)cc(-c3ccccc3)n2n1,-8.7,i,1.05,0.0,3.1,117.6,101.6
CC(=O)c1cccc(N(CC(=O)O)S(C)(=O)=O)c1,-7.2,i,0.93,-1.7,-23.7,93.8,92.6
Cc1ccc(CNc2nc(-c3cccs3)nc3ccccc23)cc1,-0.3,i,0.86,0.9,.,.,107.8
O=C(CSCc1ccc([N+](=O)[O-])cc1)NCCSCc1ccccc1,9.2,i,1.01,-0.1,29.0,122.1,85.0
O=C(c1ccc([N+](=O)[O-])cc1)n1nc(-c2ccccc2)nc1NCc1ccc(F)cc1,-8.9,i,0.86,-0.8,.,.,111.5
CCOC(=O)c1sc2nc(C)c([N+](=O)[O-])c(COC)c2c1N,3.2,.,.,.,.,.,89.0
O=C1CSC(=NC(=O)c2ccccc2)N1,-9.2,i,0.84,-0.3,20.0,88.4,100.6
Fc1ccc(Nc2nnc(C(F)(F)F)s2)cc1,.,i,1.05,.,.,.,95.4
COc1cc(OC)c2ccc(=O)oc2c1C(CCN1CCCC(C)C1)c1ccc2c(c1)OCO2 (stereo not given),.,i,0.97,.,.,.,101.8
COc1cc(C=O)ccc1OCc1ccccc1Br,-8.9,i,0.91,-0.9,3.5,116.9,106.4
CCNC(=O)C(=O)NCC1OCCCN1S(=O)(=O)c1cccs1 (stereo not given),-7.3,i,0.93,-1.6,-33.3,93.3,105.0
FC(F)(F)c1cnc(-c2cnc(-c3ccccn3)nc2)c(Cl)c1,-4.5,.,.,.,-46.1,113.0,67.7
CN(C)c1ccc(/C=N/OC(=O)Nc2ccccc2Cl)cc1,-4.6,i,0.92,.,-25.0,92.0,104.9
Cc1cc(Nc2cc(C)on2)n2ncnc2n1,-1.9,i,1.08,-0.4,.,.,111.3
O=C(CSc1nc2ccccc2c(=O)n1-c1cccc(C(F)(F)F)c1)NC1CC1,1.2,i,1.01,-1.7,-3.1,147.0,105.7
CCC(=O)NC(Nc1sc2c(c1C(=O)OC)CCN(C)C2)(C(F)(F)F)C(F)(F)F,-2.3,i,1.05,-0.9,-81.0,164.0,.
CN(C)C(=S)Nc1ccc(Cl)cc1,.,i,1.22,.,.,.,100.9
Cc1ccccc1N=C/C=C1/C=C(c2ccccc2)OC(C)(C)O1,-4.2,i,0.89,-0.7,25.0,123.4,113.5
COc1cc(/C=C/C(=O)OC2CC3CCC2(C)C3(C)C)ccc1O (stereo not given),.,i,1.01,.,.,.,105.9
CCCCCCn1cnc2c(c1=O)c1nc3ccccc3nc1n2/N=C/c1ccco1,-8.9,i,0.85,-0.9,.,.,93.5
Cc1cccc(OCc2nnc(SCC(=O)c3cccs3)n2C)c1C,-1.5,i,0.87,-0.3,.,.,109.4
OCCC1CN(Cc2nc3c(s2)CCCC3)CCN1Cc1ccsc1 (stereo not given),-9.8,i,0.85,.,.,.,111.0
CCOC(=O)N1CCN(Cc2nc3c(c(=O)n(C)c(=O)n3C)n2Cc2ccc(F)cc2)CC1,6.4,i,1.04,0.1,.,.,113.5
Fc1ccc(-c2cnn3c(-c4cccs4)ccnc23)cc1,1.2,i,1.03,.,-125.0,140.5,96.3
CCOC(=O)/C=c1\s/c(=C\c2ccc3c(c2)OCCO3)c(=O)n1CC(=O)NCC1CCCO1 (stereo not given),0.1,i,1.05,-1.9,30.3,94.4,100.0
CC(C)(O)C(=O)N=Nc1c(O)[nH]c2ccccc12,0.6,i,1.09,.,18.8,64.8,101.7

# An excerpt of these results, with each value named.
mol: Cc1ccccc1N=C/C=C1/C=C(c2ccccc2)OC(C)(C)O1
  PKD1 inh: -4.2
  HSV augment: i
  HSV augment primary fold: 0.89
  GALR2 ag: -0.7
  Insulin prom inh: 25.0
  Insulin prom inh cell count: 123.4
  RGS16-Gao: 113.5
mol: COc1cc(/C=C/C(=O)OC2CC3CCC2(C)C3(C)C)ccc1O (stereo not given)
  PKD1 inh: .
  HSV augment: i
  HSV augment primary fold: 1.01
  GALR2 ag: .
  Insulin prom inh: .
  Insulin prom inh cell count: .
  RGS16-Gao: 105.9

# Other records:
SMILES,PKD1 inh,HSV augment,HSV augment primary fold,GALR2 ag,Insulin prom inh,Insulin prom inh cell count,RGS16-Gao
O=C(C1CCCCC1)N(CCN1CCCC1)c1nc2ccccc2s1,-1.6,.,.,-1.0,-166.7,52.7,121.7
O=C1CC(N2CCC(c3nc4ccccc4o3)CC2)C(=O)N1c1ccc(Cl)cc1 (stereo not given),-5.0,.,.,-1.7,-7.1,73.7,.
CC(C)C(=O)Nc1ccccc1C(=O)OCC(=O)c1ccc2c(c1)OCCO2,2.1,i,0.95,0.1,.,.,110.3
O=C(NC12CC3CC(CC(C3)C1)C2)C12CC3CC(C1)CC(n1cnc(Cl)n1)(C3)C2,4.8,i,0.92,-1.4,.,.,104.2
Cc1nc2ccc(C(C(F)(F)F)(C(F)(F)F)C(F)(F)F)cc2[nH]1,-5.5,i,0.92,-0.7,-22.2,83.8,101.1
O=C(c1cnn2c(C(F)(F)F)cc(-c3ccco3)nc12)N1CCCCCC1,-2.6,i,1.03,-0.5,14.3,90.9,77.5
CSc1ccccc1C(=O)NC1CCCC1,-1.9,i,1.13,-0.9,17.9,200.0,104.5
CC[n+]1c(/C=C/Nc2ccccc2)oc2ccccc21,-2.8,i,1.25,0.5,-137.5,97.4,100.0
O=C(O)c1ccc(COc2ccc3ccccc3c2/C=C2/NC(=O)N(Cc3ccc(F)cc3)C2=O)cc1,1.1,i,1.01,.,0.0,92.9,99.1
CCN(CC)CC(=O)NCC1(c2ccccc2)CCOCC1,0.5,i,1.04,-1.9,-50.0,139.0,99.0
C(=N\Nc1nc(N2CCCCC2)nc(N2CCCCC2)n1)/c1c[nH]c2ccccc12,6.2,i,0.77,.,.,.,109.5
COC(=O)C1C(O)=C(C(C)=Nc2cccc3ccccc23)C(=O)CC1(C)C (stereo not given),.,i,1.24,.,.,.,108.5
Cc1cccc(NC2=NC3(CCCCC3)N=C(N)N2)c1C,0.4,i,0.9,-2.2,-30.3,110.9,145.3
O=C(CN1CCCc2ccccc21)N/N=C/c1ccccc1O,3.2,i,0.88,-1.6,-3.2,93.3,101.0
COc1cc(/C=N/O)cc(Br)c1OCc1ccc(Cl)cc1,-1.8,i,0.88,-2.0,-75.0,114.8,104.1
CC(C)(C)NC(=O)CCC1COc2ccccc2O1 (stereo not given),-10.1,i,0.99,-2.5,23.3,81.1,103.1
N#Cc1c(Cn2cncn2)nc(=O)n(-c2ccc(Cl)cc2)c1N,2.9,i,1.43,.,.,.,100.5
O=C(CCc1c[nH]c2ccccc12)NCc1ccco1,3.4,i,1.01,.,.,.,96.7
CC(=O)c1ccc(Nc2cc(C)nc3c(C)cc(C)cc23)cc1,1.0,i,0.78,.,.,.,98.7
COc1ccc(CC(=O)Nc2ccc(C(=O)Nc3nccs3)cc2)cc1OC,0.1,i,1.03,.,.,.,101.1

# Random excerpt: two entries already listed
SMILES,PKD1 inh,HSV augment,HSV augment primary fold,GALR2 ag,Insulin prom inh,Insulin prom inh cell count,RGS16-Gao
C(=N\Nc1nc(N2CCCCC2)nc(N2CCCCC2)n1)/c1c[nH]c2ccccc12,6.2,i,0.77,.,.,.,109.5
CSc1ccccc1C(=O)NC1CCCC1,-1.9,i,1.13,-0.9,17.9,200.0,104.5

# Returning to the listing, starting 2 compounds before the break.
SMILES,PKD1 inh,HSV augment,HSV augment primary fold,GALR2 ag,Insulin prom inh,Insulin prom inh cell count,RGS16-Gao
CC(=O)c1ccc(Nc2cc(C)nc3c(C)cc(C)cc23)cc1,1.0,i,0.78,.,.,.,98.7
COc1ccc(CC(=O)Nc2ccc(C(=O)Nc3nccs3)cc2)cc1OC,0.1,i,1.03,.,.,.,101.1
CC(=O)c1c(C)[nH]c(C(=O)CSc2nnc(-c3ccccc3)n2Cc2ccc3c(c2)OCO3)c1C,3.5,i,0.89,-1.0,i,59.8,101.8
CCOc1ccc(C(=O)c2ccc([N+](=O)[O-])cc2Cl)cc1,-3.9,i,0.96,.,.,.,111.4
C/C(N)=C(/C#N)C(=O)COC(=O)CSc1ccc2ccccc2c1,-8.7,i,0.9,-3.2,37.8,123.9,106.4
CC(OC(=O)C(NC(=O)c1ccco1)C(C)C)C(=O)Nc1ncc(Cl)cc1Cl (stereo not given),-2.6,i,1.06,-0.6,0.0,97.6,97.5
CN(C)CCCOC(=O)c1ccc(Cl)cc1,-4.7,.,.,-1.2,.,.,98.3
Cc1cccc(N(C)C(=O)COc2cc(=O)n(C)c3ccccc23)c1,4.9,i,1.24,-1.8,.,.,98.1
O=C(NCC1CCCO1)C(c1ccc(F)cc1)N(CC1CCCO1)C(=O)c1ccc(-c2ccccc2)[nH]1 (stereo not given),-6.1,i,0.98,.,.,.,105.2
Nc1cc(C(=O)OCC(=O)NCC2CCCO2)ccc1Cl (stereo not given),-8.8,i,0.91,-3.0,-60.6,119.8,101.7
COc1ccc(NC(=O)c2ccccc2SC)cc1,2.0,i,0.98,.,-13.3,161.9,103.3
O=C(NNC(=O)C1CCN(S(=O)(=O)c2ccc(Cl)cc2)CC1)c1ccc(S(=O)(=O)N2CCCCC2)cc1,-13.0,.,.,-1.8,-15.4,63.9,98.1
O=C(Nc1cc(Cl)ccc1Cl)N1CCCC1,6.0,i,1.11,.,.,.,103.1
Clc1ccc2c(N/N=C/c3cccnc3)ccnc2c1,1.4,i,0.66,.,92.9*,140.5*,108.3
FC(F)(F)c1cnc(Oc2ccc(-c3nnco3)cc2)c(Cl)c1,-16.5,i,1.02,-2.3,-28.6,106.2,99.6
CC(Oc1ccc([N+](=O)[O-])cc1Cl)C(=O)Nc1ccc(C(N)=O)cc1 (stereo not given),2.4,i,1,.,.,.,101.5
Cc1ccc(C2=NN(S(C)(=O)=O)C(c3ccc4c(c3)OCO4)C2)cc1 (stereo not given),0.9,i,1.11,-1.1,-55.2,97.8,97.2
CCN=C(NCC)SC1CC(=O)N(c2ccc(F)cc2)C1=O (stereo not given),-6.0,i,1.04,.,.,.,102.6
CC1=NN(C(=O)Cc2ccc([N+](=O)[O-])cc2)C(O)(C(F)(F)C(F)(F)F)C1 (stereo not given),.,i,0.97,.,.,.,103.5
CCCCn1nnnc1SCC(=O)Nc1ccc2c(c1)OCO2,-1.2,i,0.917,-1.8,17.1,116.3,101.2
CCOc1ccc(Br)cc1S(=O)(=O)NC(=O)c1ccccc1,-3.1,i,0.98,.,28.6,101.8,105.8
CC1(C)CC(=O)C(C(N)=NC(=O)c2ccccc2)=C(O)C1,-3.6,i,0.93,.,.,.,99.5
CC(C)c1ccc(NC(=S)NN(c2ccccc2)c2ccccc2)cc1,-6.4,i,1.04,1.0,10.5,156.0,114.8
COC(=O)CC1=NN(c2nc(C)cc(C)n2)C(=O)C1,-4.5,i,0.95,.,-33.3,117.5,101.5
COc1cccc(OC)c1C(=O)Nc1ccccc1C(=O)N1CCOCC1,-8.7,i,1.08,-5.4,-9.1,108.2,102.0
